B2AR ag: human beta-2 adrenergic receptor agonism by FAP; 340,000 tested, 0.43% active; response, % (concentration not given with the values); Am2.2-beta2AR cells, FAP receptor internalization, flow cytometry; reference of the scale not given here;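 active = response above a set limit, near 3 SD of response in nonfluorescent compounds, cut at about 42% in these data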;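 note: stock transfer was 100 nL into about 11 µL; a reference agonist was the positive control; negative values mostly stem from fluorescent compounds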
Target sequence (P07550 whole entry, looked up): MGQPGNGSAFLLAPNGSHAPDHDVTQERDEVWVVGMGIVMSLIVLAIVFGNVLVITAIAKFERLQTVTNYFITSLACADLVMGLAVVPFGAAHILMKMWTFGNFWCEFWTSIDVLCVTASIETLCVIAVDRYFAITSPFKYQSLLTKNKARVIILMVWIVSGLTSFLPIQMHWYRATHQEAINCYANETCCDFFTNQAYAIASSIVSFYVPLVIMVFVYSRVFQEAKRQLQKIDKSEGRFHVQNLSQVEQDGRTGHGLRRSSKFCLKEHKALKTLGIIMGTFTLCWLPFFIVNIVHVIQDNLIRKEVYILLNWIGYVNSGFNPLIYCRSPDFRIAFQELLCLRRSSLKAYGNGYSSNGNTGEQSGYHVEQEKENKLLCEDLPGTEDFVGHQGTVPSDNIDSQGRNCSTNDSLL
HNF4A DNA FP: change in binding of human HNF4 alpha to DNA. P41235. HNF4a-FITC DNA binding, fluorescence polarization, 1 h. activity change, % at 10 µM. 360,000 tested, 0.3% active. AID 1224865; in the data active = activity change above about 30%, passing the limit was not always enough;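 note: controls were the assay level and a saturating level of protein; the project sought stronger binding though the title names inhibitors; some compounds called inactive have numbers as strong as hits; positive values seem to mean higher polarization but the record does not say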
Ecoli growth: E. coli growth inhibition; 330,000 tested, 0.21% active; Escherichia coli growth, OD600, 23 h; stronger effect = lower value; AID 1053175; OD600 absorbance (concentration not given with the values);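 active = OD600 absorbance below the run mean of sample wells minus 3.6 SD, in any replicate, cut at about 0.56 in these data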;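 note: stock transfer was 300 nL into about 60 µL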
Bfl-1 A1 inh: inhibitors of the anti-apoptotic protein A1, read as caspase activation. MEF A1-2A-BIM cells, Caspase-Glo 3/7 luminescence, 3 h; percent of clofoctol response, vehicle zero. 330,000 tested, 0.066% active. caspase activation, % (test concentration not listed);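 active = over half of replicate activation scores above 10%, or exactly half above 10 with the replicate mean above 10; inconclusive = replicate mean below 10 yet half the replicates above 10; inactive = over half of replicates below 10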;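 note: wells of about 30 µL received 50 nL stock; many hits fall short of the cut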
UCH37 inh: inhibitors of human deubiquitinating enzyme UCH37; inhibition, % (no concentration beside the values); purified proteasome/UCH37, Ub-AMC cleavage fluorescence; AID 588478; 330,000 tested, 0.33% active;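 active = mean of two replicates above 20%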;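 note: 0% = compound-free wells with enzyme and 100% = wells lacking proteasome; stock transfer was 100 nL into about 20 µL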
Target sequence (Q9Y5K5 whole entry, looked up): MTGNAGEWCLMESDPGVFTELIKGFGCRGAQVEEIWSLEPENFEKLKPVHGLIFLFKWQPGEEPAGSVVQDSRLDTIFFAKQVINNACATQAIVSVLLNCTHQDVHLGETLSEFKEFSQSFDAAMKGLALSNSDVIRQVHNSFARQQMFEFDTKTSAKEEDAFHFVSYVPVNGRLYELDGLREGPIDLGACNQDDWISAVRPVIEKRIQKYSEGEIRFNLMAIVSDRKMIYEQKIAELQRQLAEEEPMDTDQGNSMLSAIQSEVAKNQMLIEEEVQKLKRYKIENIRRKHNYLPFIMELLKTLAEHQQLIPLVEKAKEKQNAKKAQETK
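Material: human UCH37 enzyme supplied as purified proteasome complex. Measure: % inhibition of Ub-AMC cleavage fluorescence. Medium: pH 7.4 Tris-HCl (50 mM) with ovalbumin, ATP-MgCl2, DTT. Times: 30 min preincubation with enzyme, 25 min cleavage at room temperature. Detection: AMC fluorescence intensity at 355/460 nm.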
LANA-H2A inh: blocks KSHV LANA binding to histone H2A/H2B | cell-free LANA-H2A/H2B peptide, fluorescence polarization | Q9QR71 | 320,000 tested, 0.6% active | inhibition, % (no concentration beside the values); in the data active = inhibition mostly above about 10%, no sharp cut-off; inactive = mostly below about 6.7%;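 note: stock transfer was 7.5 nL into about 10 µL; 0% = median of vehicle wells and 100% = median of positive control wells; one replicate is shown; the record names a cut of 25% in any replicate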
Vif A3G: inhibitors of Vif binding to APOBEC3G peptide, primary screen, biochemical, TR-FRET, GST-Vif 1-94, biotin-A3G peptide, dose response retest (AID 1117319). TR-FRET GST-Vif / biotin-A3G peptide binding; higher % means a stronger effect; test concentration not given here; strong numbers were not always called active. 260,000 tested, 0.57% active. inhibition, %, or IC50 in µM where a hit was titrated;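 active = above the screen mean plus three standard deviations and confirmed in dose response; inconclusive = results disagree or hit not tested in dose response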;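 note: Vif residues 1-94 fused to GST binding biotinylated APOBEC3G peptide 110-148; 0% = full assay without inhibitor and 100% = GST in place of GST-Vif; retest series ran down from 100 µM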
Starred values were filed as active, the others as inactive; i = inactive; ? = inconclusive; . = not tested or not shown; & = joins results of further samples.

SMILES	B2AR ag	HNF4A DNA FP	Ecoli growth	Bfl-1 A1 inh	UCH37 inh	LANA-H2A inh	Vif A3G
COc1ccc(C2NC(=O)NC(O)(C(F)(F)F)C2C(=O)c2ccc(C)cc2)cc1 (stereo not given)	-2	-1.2	0.67	0.3	4.5	0.9	0%
Cc1ccccc1NC(=O)CSc1nc(=O)n(CCN2CCOCC2)c2c1CCCC2	3	0.1	0.69	0.0	-0.3	2.1	2%
O=[N+]([O-])c1ccc(NN=Cc2cccc3ccccc23)nc1	6	35*	0.7	.	2.2	.	-4%
O=C(c1ccc(-c2nc3ccccc3s2)o1)N1CCN(c2ccccc2O)CC1	13	2.1	0.71	0.1	5.4	-5.7	5%
CCOC(=O)c1c(-c2ccc(C)cc2)csc1NC(=S)NC(=O)c1ccccc1	-5	2.1	0.71	0.3	6.1	2.6	3%
COc1cc(OC)c2c(C)cc(=O)oc2c1	3	-3.4	0.69	0.5	i	0.9	8%
CC(=O)Nc1cccc(NC(=O)CSc2nn3c(=O)c(C)nnc3s2)c1	1	1.1	0.71	-0.1	9.6	-0.6	.
COc1cccc(C(=O)O/N=C(\C)c2cnccn2)c1	4	2.8	.	2.3	.	4.4	2%
Fc1cccc(CSc2nnc3c(n2)[nH]c2ccccc23)c1	-4	1.1	0.69	0.1	3.7	1.7	9%
COc1cccc2oc3cc(C#CC4(O)CCCCC4)ccc3c(=O)c12	11	-0.7	0.68	-6.5	-5.5	0.7	.
COC(=O)C(Cc1cnc[nH]1)NC(=O)C1CCC(=O)N1 (stereo not given)	-2	5.0	0.67	0.8	5.2	0.2	-3%
CS(=O)(=O)N(CC(=O)N1CCOCC1)c1cccc([N+](=O)[O-])c1	1	-1.1	0.63	2.0	0.0	-7.4	-4%
COc1ccc(NC(=O)c2ccco2)c(OC)c1	8	2.6	0.7	-0.9	2.4	-1.7	31%
O=Cc1cc(Br)c(OC(=O)N2CCOCC2)c(Br)c1	1	1.7	0.69	0.4	0.7	0.1	2%
O=C1C(=O)N(CCN2CCOCC2)C(c2cccc(Cl)c2)/C1=C(/O)c1ccc2c(c1)OCO2 (stereo not given)	2	-1.7	0.67	0.4	8.7	-1.1	-6%
O=C1CC(c2ccc(S(=O)(=O)NCCOc3ccccc3)cc2)CN1 (stereo not given)	3	-0.5	0.69	-0.9	3.3	-6.7	1%
CCn1c(CN2CCOCC2)nnc1SCC(=O)Nc1cccc(C)c1	-3	5.2	0.66	1.9	3.9	1.2	.
Fc1c(F)c(C(F)(F)F)c(F)c(F)c1N1CCN(c2ccc3nnc(C(F)(F)F)n3n2)CC1	-4	2.1	0.78	-0.1	-26	-3.2	16%&-13%
O=C(c1cc(-c2ccccc2)nc2ccccc12)N1CCc2ccccc2C1	-2	0.8	0.69	0.0	2.5	4.0	-6%
CCOc1ccc(-c2noc(CCC(=O)NCC3CCCO3)n2)cc1OC (stereo not given)	3	1.6	0.67	0.5	0.0	-4.1	.
COCc1cc(=O)n2[nH]c(C(C)(C)C)cc2n1	4	-1.1	0.69	1.3	-8.0	-1.3	.
Cc1ccc(C(=O)O)cc1NC(=S)NC(=O)c1ccc([N+](=O)[O-])cc1Cl	2	-0.1	0.64	0.4	3.2	0.5	20%
O=C(c1cc2c([nH]c1=O)CCCC2)N1CCc2c([nH]c3ccccc23)C1c1ccccc1F (stereo not given)	10	1.9	0.69	-0.5	3.8	6.3	-16%
COCCCNC(=O)CN(Cc1ccc(Cl)cc1)S(C)(=O)=O	2	-3.1	0.67	-0.2	4.4	-1.9	3%
CCn1c2ccccc2c2cc(CN3CCN(C(=O)c4ccco4)CC3)ccc21	4	2.4	0.77	-0.5	2.3	5.4	4%
CCNC(=S)Nc1cccc(Cl)c1C	2	-2.9	0.69	-0.3	4.5	0.5	?
COc1cccc(/C=C2\SC(=S)N(NS(=O)(=O)c3ccccc3)C2=O)c1OC	11	-3.7	0.66	0.0	19	4.0	-4%
Cc1cc(S(=O)(=O)N2CCC(NC(=O)C34CC5CC(CC(C5)C3)C4)CC2)ccc1-n1cnnn1	-1	-2.4	0.74	-0.5	3.1	5.3	0%
CC(=O)Nc1ccc(S(=O)(=O)N(C)CC(=O)OCC(=O)N2CCCCC2)cc1	-4	3.8	0.62	-0.3	2.3	1.6	0%
N/C(COc1ncn(-c2ccccc2)n1)=N\S(=O)(=O)c1ccccc1	0	-2.6	0.71	0.7	4.7	-1.8	6%

Already shown: 4 of the compounds above.
SMILES	B2AR ag	HNF4A DNA FP	Ecoli growth	Bfl-1 A1 inh	UCH37 inh	LANA-H2A inh	Vif A3G
COc1cccc(/C=C2\SC(=S)N(NS(=O)(=O)c3ccccc3)C2=O)c1OC	11	-3.7	0.66	0.0	19	4.0	-4%
Cc1cc(S(=O)(=O)N2CCC(NC(=O)C34CC5CC(CC(C5)C3)C4)CC2)ccc1-n1cnnn1	-1	-2.4	0.74	-0.5	3.1	5.3	0%
CC(=O)Nc1ccc(S(=O)(=O)N(C)CC(=O)OCC(=O)N2CCCCC2)cc1	-4	3.8	0.62	-0.3	2.3	1.6	0%
N/C(COc1ncn(-c2ccccc2)n1)=N\S(=O)(=O)c1ccccc1	0	-2.6	0.71	0.7	4.7	-1.8	6%

(continued)
SMILES	B2AR ag	HNF4A DNA FP	Ecoli growth	Bfl-1 A1 inh	UCH37 inh	LANA-H2A inh	Vif A3G
C=CCn1c2ccccc2c2nnc(SCCN3CCOCC3)nc21	-1	-1.0	0.69	-1.1	13	1.5	.
N#Cc1ccccc1NC(=O)CC1c2ccccc2Oc2ccccc21	1	-0.7	0.65	1.5	4.2	-4.8	-8%
CCOC(=O)C1=C(Cn2cnc3ccccc32)NC(=O)NC1c1ccc(Cl)cc1 (stereo not given)	-8	4.6	0.68	-0.4	5.4	2.3	-2%
COc1ccc(CNC(=O)CCSc2ccc(F)cc2)cc1OC	8	3.5	0.63	-1.3	2.2	8.8	1%
CC1Oc2ccccc2C(=O)N(CC(=O)c2ccc3c(c2)OCCO3)C1=O (stereo not given)	4	0.6	0.68	-0.5	0.8	3.0	.
Clc1cccc(Cl)c1C[n+]1ccc2ccccc2c1	16	1.8	0.65	0.2	-6.9	0.4	-15%
CC1(C)C(=O)OC(c2ccc([N+](=O)[O-])cc2)C(C)(C)C1=O (stereo not given)	1	-0.1	0.67	1.7	2.5	-9.0	-3%
CCOc1ccccc1CN1CCN(C2CCC2)CC1CCO (stereo not given)	-2	-1.1	0.68	0.5	1.1	-5.1	.
COc1ccc(NC(=O)c2ccc3c(=O)n(CC4CCCO4)c(=S)[nH]c3c2)c(OC)c1 (stereo not given)	10	0.1	0.68	-0.4	3.4	-7.5	-1%
CN(Cc1ccco1)C(=O)c1ccc(N2CCCC2=O)cc1	-1	-3.1	0.7	-0.1	0.0	-4.6	3%
CCCCOc1ccc(C(=O)N2CCN(CC(=O)Nc3ccc(C)cc3)CC2)cc1OC	1	3.9	0.68	0.5	1.0	4.9	6%
Cc1ccccc1CS(=O)(=O)Cc1ccc(C(=O)NC2CCCCC2)o1	10	-1.6	0.68	1.2	-1.4	20	.
C/C(=N\N=C(N)N)c1cccc(Cl)c1	-3	-3.7	.	2.1	.	0.1	-4%
Nc1cccc(-c2cn(-c3cc4cc(C#CC5(O)CCCCC5)ccc4oc3=O)nn2)c1	5	0.9	0.71	0.0	4.2	0.3	.
CCN(CC)C(=O)CCc1nnc(Cc2cccc(C(F)(F)F)c2)o1	0	8.0	0.66	-2.6	2.2	-0.7	7%
CCCN1CCN(CCCNC(=O)C(CC)n2nc(C)n3c(cc4occc43)c2=O)CC1 (stereo not given)	-5	-1.8	0.67	-0.3	-1.8	0.1	1%
Clc1ccc(-c2nnc3sc(Cc4cccs4)nn23)cc1	4	2.0	0.72	0.2	0.9	2.3	5%
Cc1ccc(NC(=O)c2ccc(F)cc2)nc1	-7	-0.8	0.62	-6.0	1.2	2.3	-2%
Nc1ncnc2c1ncn2[C@H]1C[C@H](O)[C@@H](COP(=O)(O)O)O1	-3	-11	.	-0.1	-2.0	5.1	2%
CC(OC(=O)CNC(=O)c1ccc2c(c1)OCO2)C(=O)NCCC1=CCCCC1 (stereo not given)	-3	-1.8	0.74	0.1	7.7	3.0	7%
CCCCNC(=O)Cn1c(=O)c2c(ncn2CCC(C)C)n(Cc2ccccc2)c1=O	5	-1.6	0.7	1.8	-3.4	-6.5	.
CCc1ccc(CNC(=O)C2Cc3cc(S(=O)(=O)N4CCCC4)ccc3N2C(C)=O)cc1 (stereo not given)	-3	0.6	0.65	0.0	2.0	6.9	.
COc1ccc(-c2[nH]c(-c3ccc(F)cc3)nc2SCC(=O)NC2CCCC2)cc1	1	-2.3	0.72	0.1	1.1	2.4	-4%
O=C(c1cccc(Cl)c1)N(Cc1cccs1)C1CCS(=O)(=O)C1 (stereo not given)	9	0.1	0.67	0.7	5.2	0.0	1%
Cc1nnc(SCC2=C(C(=O)O)N3C(=O)C(NC(=O)c4cc(F)c(F)cc4Cl)C3SC2)s1 (stereo not given)	-3	-7.7	0.64	-1.3	1.4	-6.0	30%
O=C1N=C(N2CCCCC2)S/C1=C/C1=Cc2ccccc2OC1	-6	-2.1	.	0.9	.	-0.7	3%
Cc1cc(NC(=O)CCC(=O)N(Cc2ccco2)C2(C(=O)NC3CCCC3)CCCCC2)no1	-2	-2.3	0.63	0.4	9.8	-2.4	.
CCCN1Cc2cccc(C(=O)NCc3cccs3)c2C1=O	-8	1.8	0.73	-0.1	0.5	5.1	26%
Cc1cc(-n2nc(C)cc2C)nc(N)n1	-6	-2.4	0.69	0.1	3.2	2.4	-3%
Oc1ccc2ccccc2c1C=Nc1ccccc1Br	27	-22	0.69	0.5	1.4	-4.9	.
COC(=O)c1nn(-c2cccc(C)c2)c2nnc(Cc3ccc(C)cc3)c(=O)n12	5	-5.5	0.7	-1.3	0.8	5.8	4%
Cc1ccccc1-n1cnnc1SCC(=O)Nc1cccnc1Cl	-10	-1.8	0.74	0.7	-0.8	-3.4	8%
COc1ccc(CCNc2ccc(C(CC(N)=O)NC(=O)c3cc(OC)ccc3OC)cc2[N+](=O)[O-])cc1 (stereo not given)	-7	-3.1	0.69	0.1	0.3	2.3	.
COc1cccc(CNS(=O)(=O)c2ccc3c(c2)CCN3C(=O)C2CC2)c1	-12	0.6	0.7	0.2	0.0	0.7	6%
Nc1nnc(CC(=O)N/N=C/c2cccc(OCCOc3ccccc3)c2)s1	-5	0.4	.	-1.6	.	-0.8	26%
COc1cc(OC)cc(-c2c(-c3cccs3)c3cc(-c4ccc5c(c4)OCO5)ccc3n2C)c1	3	0.2	0.72	0.3	-35	5.9	.
O=[N+]([O-])c1ccc(CNc2cccc(F)c2)s1	5	0.6	0.63	0.9	1.4	0.2	2%
CCOC(=O)C1CCCN(S(=O)(=O)c2ccc(C)cc2)C1 (stereo not given)	5	3.7	0.68	1.5	-0.4	0.2	14%
CC1(C)CC(=O)C(C(C2=C(O)CC(C)(C)CC2=O)c2ccc(Cl)c([N+](=O)[O-])c2)C(=O)C1 (stereo not given)	4	2.5	0.71	-0.8	0.0	1.0	.
CN(Cc1ccccc1)C(=O)CCCn1c(=O)[nH]c2cc(Cl)ccc2c1=O	1	-1.8	0.76	-1.0	0.6	2.1	23%
O=C(Nc1ccccc1C(=O)O)c1ccc(NC(=O)c2ccc(Br)o2)cc1	10	-0.4	0.73	-1.9	3.1	-4.0	-1%&20%
O=C(CN1C(=O)NC2(CCCC2)C1=O)OCC(=O)c1cccc(Cl)c1	-4	0.2	0.63	.	2.9	.	-6%
CCc1ccc(NC(=S)N(Cc2cccnc2)Cc2ccco2)cc1	-3	0.8	0.66	0.5	1.0	-3.0	5%

Screening results: PubChem, several laboratories
